# Screening results: PubChem, Broad Institute
# Tgondii IFNg: inhibitors of Toxoplasma gondii growth with IFN-gamma. Toxoplasma gondii growth in IFN-gamma-treated host cells; hits give low values; reference of the scale not given here. activity change, negative = inhibition, %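 (about 20 µM by stock and volumes)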. 3.8% of 69,000 active. AID 1259416;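 active means below -70%; inconclusive means fit judged invalid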;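 further: host cells are HeLa cells infected with Toxoplasma gondii; parasite growth read as luciferase light; one replicate is shown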
# Starred values were filed as active, the others as inactive; u = inconclusive; & = joins results of further samples; ! = not active in a repeat.
[1] CCCSc1nc(N[C@@H]2C[C@@H]2c2ccc(F)c(F)c2)c2nnn([C@@H]3C[C@H](OCCO)[C@H](O)[C@H]3O)c2n1
  Tgondii IFNg = -5.8
[2] Cc1nnc(-c2ccc3occ(-c4ccc(S(C)=O)cc4)c3c2)o1 (centres undefined)
  Tgondii IFNg = 6.1
[3] COc1ccc(-c2cc(C(F)F)nn2-c2ccc(S(N)(=O)=O)cc2)cc1F
  Tgondii IFNg = -15.9
[4] CNS(=O)(=O)CCc1ccc2[nH]cc(C3CCN(C)CC3)c2c1
  Tgondii IFNg = 10.5
[5] CCN(CCCCOC(=O)c1ccc(OC)c(OC)c1)C(C)Cc1ccc(OC)cc1 (centres undefined)
  Tgondii IFNg = -32.1&-51.0&12.6
[6] O=C(NCCCN1CCOCC1)c1ccc(Cl)cc1
  Tgondii IFNg = 23.0
[7] C[C@@H](Oc1ccc2[nH]nc(/C=C/c3cnn(CCO)c3)c2c1)c1c(Cl)cncc1Cl
  Tgondii IFNg = -75.0*
[8] COc1cc(C=O)ccc1O
  Tgondii IFNg = 10.4
[9] CC(C)NNC(=O)c1ccncc1
  Tgondii IFNg = 20.8&-20.8
[10] CNC(=O)c1cc(Oc2ccc(NC(=O)Nc3ccc(Cl)c(C(F)(F)F)c3)c(F)c2)ccn1
  Tgondii IFNg = -80.6*
[11] CC(C)(Cc1ccc2ccccc2c1)NC[C@@H](O)COc1cccc(Cl)c1C#N
  Tgondii IFNg = -71.8*
[12] CN(C)C(=O)c1cc2cnc(Nc3ccc(N4CCNCC4)cn3)nc2n1C1CCCC1
  Tgondii IFNg = 6.5
[13] CC[C@@H]1OC(=O)C[C@@H](O)[C@H](C)[C@@H](O[C@@H]2O[C@H](C)[C@@H](O)[C@H](N(C)C)[C@H]2O)[C@@H](CCN2C[C@H](C)C[C@H](C)C2)C[C@@H](C)C(=O)/C=C/C(C)=C\[C@@H]1CO[C@@H]1O[C@H](C)[C@@H](O)[C@@H](OC)[C@H]1OC
  Tgondii IFNg = -54.4
[14] CCN(CC)CCOc1ccc(Cc2ccccc2)cc1
  Tgondii IFNg = 8.2&14.8
[15] CC(Cc1cccc(C(F)(F)F)c1)NCCOC(=O)c1ccccc1 (centres undefined)
  Tgondii IFNg = -63.4&-48.5

# Of the compounds above, these have sulfur.
[1] CCCSc1nc(N[C@@H]2C[C@@H]2c2ccc(F)c(F)c2)c2nnn([C@@H]3C[C@H](OCCO)[C@H](O)[C@H]3O)c2n1
  Tgondii IFNg = -5.8
[2] Cc1nnc(-c2ccc3occ(-c4ccc(S(C)=O)cc4)c3c2)o1 (centres undefined)
  Tgondii IFNg = 6.1
[3] COc1ccc(-c2cc(C(F)F)nn2-c2ccc(S(N)(=O)=O)cc2)cc1F
  Tgondii IFNg = -15.9
[4] CNS(=O)(=O)CCc1ccc2[nH]cc(C3CCN(C)CC3)c2c1
  Tgondii IFNg = 10.5

# Additional compounds:
[16] CCCC(=O)O[C@]1(C(=O)CCl)[C@@H](C)C[C@H]2[C@@H]3CCC4=CC(=O)C=C[C@]4(C)[C@@]3(F)C(=O)C[C@@]21C
  Tgondii IFNg = 29.1
[17] Cc1cc(Cn2cnc3c2C[C@@H](C(=O)O)N(C(=O)C(c2ccccc2)c2ccccc2)C3)ccc1N(C)C
  Tgondii IFNg = 20.5
[18] COc1ccc(C(=O)c2ccccc2)c(O)c1
  Tgondii IFNg = 20.4&41.3
[19] CCOC(=O)c1nc(NCc2ccc(OC)cc2OC)c2ccccc2n1
  Tgondii IFNg = 20.9
[20] Cc1ccccc1OCC(O)CO (centres undefined)
  Tgondii IFNg = 20.2
[21] CNCc1ccc(-c2[nH]c3cc(F)cc4c3c2CCNC4=O)cc1
  Tgondii IFNg = 0.2
[22] CC1(C)CC(=O)c2c(C(F)(F)F)nn(-c3ccc(C(N)=O)c(NC4CCC(O)CC4)c3)c2C1 (centres undefined)
  Tgondii IFNg = -77.5*
[23] COCCOc1ccc(N2CCN(CCn3ncc4c3nc(N)n3nc(-c5ccco5)nc43)CC2)cc1
  Tgondii IFNg = -8.4
[24] Cc1c(C(=O)Nc2ccc(N3C[C@@H](C)O[C@@H](C)C3)nc2)cccc1-c1ccc(OC(F)(F)F)cc1
  Tgondii IFNg = -31.4
[25] O=[N+]([O-])c1cncn1CCN1CCOCC1
  Tgondii IFNg = 20.9
[26] O=C(NC1CCN(CCc2c[nH]c3ccccc23)CC1)c1ccccc1
  Tgondii IFNg = 0.3
[27] CCN(CC)CC1CCCCN1CC(=O)N1c2ccccc2C(=O)Nc2cccnc21 (centres undefined)
  Tgondii IFNg = 15.7
[28] CCCOc1ccc2nc(NC(=O)OC)[nH]c2c1
  Tgondii IFNg = -73.0*!
[29] Nc1ncnc2c1c(-c1cccc(OCc3ccccc3)c1)cn2C1CC(CN2CCC2)C1 (centres undefined)
  Tgondii IFNg = -85.4*
[30] O=C1NC(=O)C2(CCOc3ccc(F)cc32)N1 (centres undefined)
  Tgondii IFNg = 11.4

[31] CN(C(=O)c1c(O)c2ccccc2n(C)c1=O)c1ccccc1
  Tgondii IFNg = 11.8&18.4
[32] COc1cc(CCc2cc(NC(=O)c3ccc(N4C[C@@H](C)N[C@@H](C)C4)cc3)n[nH]2)cc(OC)c1
  Tgondii IFNg = -74.5*
[33] CCC(=O)Nc1cccc(Oc2nc(Nc3ccc(N4CCN(C)CC4)cc3OC)ncc2Cl)c1
  Tgondii IFNg = -18.7
[34] N#C/C(=C1/SCC(c2ccccc2Cl)S1)n1ccnc1 (centres undefined)
  Tgondii IFNg = 7.8
[35] CC(=O)N[C@@H](Cc1ccccc1)C(=O)O
  Tgondii IFNg = -23.1&12.8
[36] O=C(O)Cc1sc(-c2ccccc2)nc1-c1ccc(Cl)cc1
  Tgondii IFNg = 17.8
[37] COC(=O)C1=C(C)NC(C)=C(C(=O)OCCN2CCN(C(c3ccccc3)c3ccccc3)CC2)C1c1cccc([N+](=O)[O-])c1 (centres undefined)
  Tgondii IFNg = -84.0*!
[38] Cc1c(-c2ccnn2C)cc(C(=O)NCc2ccc(S(C)(=O)=O)cn2)c(=O)n1-c1cccc(C(F)(F)F)c1
  Tgondii IFNg = -43.1
[39] CCCCCCCCCCCCCCC[C@@H](O)[C@@H](N)CO
  Tgondii IFNg = 26.2
[40] COC(=O)c1c(NCC2CC2)c2cccc(Cl)c2[nH]c1=O
  Tgondii IFNg = -0.8
[41] Cc1nn(CC(=O)N2CCCN(C)CC2)c(=O)c2nc(-c3ccccc3)sc12
  Tgondii IFNg = 13.2
[42] CCn1cc(C(=O)O)c(=O)c2cc(F)c(N3CCNC(C)C3)c(F)c21 (centres undefined)
  Tgondii IFNg = -31.2&15.3
[43] CC(=O)N(C)C1(c2ccccc2)CCN(CCC[C@]2(c3ccc(Cl)c(Cl)c3)CCCN(C(=O)c3ccccc3)C2)CC1
  Tgondii IFNg = u
[44] CCOc1nc2cccc(C(=O)O)c2n1Cc1ccc(-c2ccccc2-c2noc(=O)[nH]2)cc1
  Tgondii IFNg = 10.3
[45] C=CCN1C[C@H](C(=O)N(CCCN(C)C)C(=O)NCC)C[C@@H]2c3cccc4[nH]cc(c34)C[C@H]21
  Tgondii IFNg = -1.5&15.3

# From entry 43 up to 45, copied from above:
[43] CC(=O)N(C)C1(c2ccccc2)CCN(CCC[C@]2(c3ccc(Cl)c(Cl)c3)CCCN(C(=O)c3ccccc3)C2)CC1
  Tgondii IFNg = u
[44] CCOc1nc2cccc(C(=O)O)c2n1Cc1ccc(-c2ccccc2-c2noc(=O)[nH]2)cc1
  Tgondii IFNg = 10.3
[45] C=CCN1C[C@H](C(=O)N(CCCN(C)C)C(=O)NCC)C[C@@H]2c3cccc4[nH]cc(c34)C[C@H]21
  Tgondii IFNg = -1.5&15.3

# Remaining list, next part.
[46] CCN(CC)CCN(Cc1ccc(-c2ccc(C(F)(F)F)cc2)cc1)C(=O)Cn1c(SCc2ccc(F)cc2)nc(=O)c2c1CCC2
  Tgondii IFNg = -76.1*
[47] CCCCN(CCCC)CCCOC(=O)c1ccc(N)cc1
  Tgondii IFNg = 43.9&-1.2&3.4
[48] CCOCc1cc(OC)c(-c2ccc(C[C@H](NC(=O)c3c(F)cccc3F)C(=O)O)cc2)c(OC)c1
  Tgondii IFNg = 8.3
[49] CCCCC(=O)O[C@]1(C(=O)CO)[C@@H](C)CC2C3CCC4=CC(=O)C=C[C@]4(C)[C@@]3(F)C(O)C[C@@]21C (some centres undefined)
  Tgondii IFNg = 1.2
[50] CCC[C@H](Nc1nc(-c2ccc(NC(=O)NCC)c(OC)c2)ncc1C)c1cccnc1
  Tgondii IFNg = -78.3*
[51] O=C(O)c1ccc(-n2nc(-c3ccccc3O)nc2-c2ccccc2O)cc1
  Tgondii IFNg = -51.8
[52] Cn1ccc2cc3c(cc21)CCN3C(=O)Nc1cccnc1
  Tgondii IFNg = 4.9&152.6
[53] CN(C)CCCSc1ccccc1NC(=O)/C=C/c1ccccc1
  Tgondii IFNg = 6.3&1.9&18.8
[54] CCc1ccccc1OC[C@@H](O)CN[C@H]1CCCc2ccccc21
  Tgondii IFNg = -80.5*!
[55] Cc1c(C)n(Cc2ccccc2)c2ccc(C(=O)OCCN(C)C)cc12
  Tgondii IFNg = -8.1
[56] C[C@H]1[C@H](C)CC[C@]2(C(=O)O)CC[C@]3(C)C(=CC[C@@H]4[C@@]5(C)C[C@@H](O)[C@H](O)[C@@](C)(CO)[C@@H]5CC[C@]43C)[C@H]12
  Tgondii IFNg = -74.2*!
[57] COc1cc(N)c(Cl)cc1C(=O)N[C@@H]1CCN(CCCOc2ccc(F)cc2)C[C@@H]1OC
  Tgondii IFNg = -6.3
[58] CCCC(=O)O[C@]1(C(=O)COC(C)=O)CC[C@H]2[C@@H]3C[C@H](F)C4=CC(=O)C=C[C@]4(C)[C@@]3(F)[C@@H](O)C[C@@]21C
  Tgondii IFNg = 8.6

# Structural class: the compounds so far with an aryl thioether with sulfur outside any ring.
[1] CCCSc1nc(N[C@@H]2C[C@@H]2c2ccc(F)c(F)c2)c2nnn([C@@H]3C[C@H](OCCO)[C@H](O)[C@H]3O)c2n1
  Tgondii IFNg = -5.8
[46] CCN(CC)CCN(Cc1ccc(-c2ccc(C(F)(F)F)cc2)cc1)C(=O)Cn1c(SCc2ccc(F)cc2)nc(=O)c2c1CCC2
  Tgondii IFNg = -76.1*
[53] CN(C)CCCSc1ccccc1NC(=O)/C=C/c1ccccc1
  Tgondii IFNg = 6.3&1.9&18.8

# A portion of the library; rates above refer to the full screens.
